# CtBP-E1A blk: qHTS Assay for Inhibitors of the CtBP/E1A Interaction; CtBP / adenovirus E1A interaction (AlphaScreen); 340,000 tested, 0.49% active; activity change, % (test concentration not listed); AlphaScreen GST-E1A/His-CtBP binding, 1536-well; active compounds read low; control for the full effect not named in the record; in the data active means activity change below about -65%; inconclusive means about -30% to -65%; inactive means above about -30%; note: % is set by controls: 0 for no effect and ±100 for the full control effect
#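 Homogeneous bead-based format: GST-tagged E1A captured on glutathione donor beads, His-tagged CtBP on nickel acceptor beads; compounds precede bead addition by 2 h at 37 °C.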
# gsp antag: qHTS for Antagonists of gsp, the Etiologic Mutation Responsible for Fibrous Dysplasia/McCune-Albright Syndrome: qHTS; 340,000 tested, 0.4% active; gsp-mutant cells, cAMP HTRF, 30 min; control for the full effect not named in the record; Potency, µM (highest dose often 76.9 µM), for inactives: at the highest dose activity change, negative = inhibition, most hits filed as inhibitors; AID 624288, 2012; active = falling curve of any shape with a large fitted effect; inconclusive = falling curve, mostly with a smaller effect; inactive = flat or rising curve; cell line not stated here;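 note: intracellular cAMP measured with PDE inhibitor Ro 20-1724 present during compound exposure; potency is the fitted concentration of half-maximal effect; % is set by controls: 0 for no effect and ±100 for the full control effect; nearly all actives have a fitted effect of over 65% in size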
#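 Cells in G418 medium, seeded 16-24 h, 37C; buffer exchange to DPBS + 1 mM CaCl2, 0.5 mM MgCl2, 0.05% BSA; cpds in DMSO + […] (300 uM stock), 30 min 37C; HTRF cAMP detection.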
# gsp ag: qHTS for Agonist of gsp, the Etiologic Mutation Responsible for Fibrous Dysplasia/McCune-Albright Syndrome: qHTS; gsp mutant cells, cAMP HTRF, 30 min; control for the full effect not named in the record; Potency, µM (highest dose often 76.9 µM), inactives show at the top dose activation (cAMP increase), hits mostly activators; 340,000 tested, 0.13% active; AID 624287, 2012; active = well fitted activation curve with a large enough effect; inconclusive = small, poorly fitted or top-dose-only effect, or another doubt; inactive = no such curve, though single readings can be large or run the other way; cell line not stated here;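 note: phosphodiesterase inhibitor Ro 20-1724 added with compounds to block cAMP breakdown; potency is the fitted concentration of half-maximal effect; nearly all actives have a fitted effect of over 60% in size; about a fifth of the inactives were tested at one dose only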
#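 Cells stably selected in G418 were plated at 2000/well, grown 16-24 hr, then given compounds in DMSO with the PDE inhibitor […] (300 uM solution added) for 30 min at 37C; cAMP was read by HTRF.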
# Six1-Eya2 blk: qHTS Assay for Inhibitors of the Six1/Eya2 Interaction; activity change, % (test concentration not listed); AlphaScreen GST-Six1/His-Eya2 binding, biochemical; active compounds read low; control for the full effect not named in the record; 360,000 tested, 0.56% active; AID 651725, 2012; Homeobox protein SIX1 (Homo sapiens) + Protein phosphatase EYA2 (Homo sapiens), …; in the data active = activity change below about -65%; inconclusive = about -30% to -65%; inactive = above about -30%; note: % is set by controls: 0 for no effect and ±100 for the full control effect
# Target sequence (O00167 whole entry, looked up): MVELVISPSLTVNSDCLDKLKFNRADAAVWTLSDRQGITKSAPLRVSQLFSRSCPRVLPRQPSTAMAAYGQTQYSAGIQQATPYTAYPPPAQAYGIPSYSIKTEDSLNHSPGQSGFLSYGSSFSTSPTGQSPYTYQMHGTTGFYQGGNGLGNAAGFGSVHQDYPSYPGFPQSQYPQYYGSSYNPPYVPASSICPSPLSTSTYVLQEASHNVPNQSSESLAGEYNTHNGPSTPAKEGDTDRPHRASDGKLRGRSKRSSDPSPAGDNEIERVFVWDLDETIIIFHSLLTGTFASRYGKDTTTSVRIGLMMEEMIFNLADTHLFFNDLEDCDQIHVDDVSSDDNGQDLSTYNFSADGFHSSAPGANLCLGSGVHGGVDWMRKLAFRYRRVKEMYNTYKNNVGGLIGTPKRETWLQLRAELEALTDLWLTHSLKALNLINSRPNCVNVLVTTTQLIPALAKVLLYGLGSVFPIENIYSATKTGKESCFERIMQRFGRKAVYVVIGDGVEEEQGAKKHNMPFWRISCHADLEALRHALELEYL
# Target sequence (Q15475 whole entry, looked up): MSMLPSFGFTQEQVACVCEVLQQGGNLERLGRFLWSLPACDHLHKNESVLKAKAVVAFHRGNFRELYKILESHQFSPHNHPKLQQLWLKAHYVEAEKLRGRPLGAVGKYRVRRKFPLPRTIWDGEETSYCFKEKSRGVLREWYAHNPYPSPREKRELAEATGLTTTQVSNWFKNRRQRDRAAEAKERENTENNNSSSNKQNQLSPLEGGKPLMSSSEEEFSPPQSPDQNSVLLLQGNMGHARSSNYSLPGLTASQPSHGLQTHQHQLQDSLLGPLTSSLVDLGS
#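 GST-Six1 + His-Eya2 (5X stock: 250/500 nM); Tris pH 8.0, 300 mM NaCl, 0.05% BSA, 0.02% Tween 20; GSH donor/Ni acceptor beads; 1 h 37 °C dark; AlphaScreen readout.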
# D2 agonist: Beta-Arrestin HTS for Positive Allosteric Modulators of the Human D2 Dopamine Receptor: Agonists; DiscoveRx PathHunter D2 beta-arrestin, luminescence, 90 min; 100% = 57 uM dopamine signal; activation, % (concentration not given with the values); D(2) dopamine receptor (Homo sapiens), P14416; AID 624465, 2012; 360,000 tested, 0.084% active; in the data active = activation above about 40%; inconclusive = about 15% to 40%; inactive = below about 15%; note: compound concentration not given in the record; the text of the record calls up to 30% inactive
#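 Agonist mode: compounds alone added to overnight-plated D2 PathHunter cells for 90 min at 37 C, with 57 uM final dopamine (EC100) defining full response. Beta-arrestin recruitment detected by chemiluminescent reagent, read after 1 h at ambient temperature.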
# D2 potentiator: Beta-Arrestin HTS for Positive Allosteric Modulators of the Human D2 Dopamine Receptor: Potentiators; D(2) dopamine receptor (Homo sapiens), P14416; 360,000 tested, 0.23% active; DiscoveRx D2 beta-arrestin cells, luminescence, 90 min; 100% = 57 uM dopamine signal; AID 624464, 2012; potentiation, % (test concentration not listed); active = potentiation of 50% or more; inconclusive = 30% to 50%; inactive = 30% or less;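 note: compound concentration not given in the record; tested on top of an EC20 dose of dopamine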
#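 PathHunter beta-arrestin assay in DiscoveRx D2 cells. Compounds were added with an EC20 of dopamine (50 nM final) for 90 min at 37 deg C. Luminescence was read 1 h after detection reagent, with 57 uM dopamine as the EC100 control.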
# Starred values were filed as active, the others as inactive; ? = inconclusive; · = not tested or not shown; [ ] = remark or other dose.
SMILES,CtBP-E1A blk,gsp antag,gsp ag,Six1-Eya2 blk,D2 agonist,D2 potentiator
O=C(O)C1CC(=O)N(C2CCCCC2)C1c1ccccc1 (centres undefined),5,2%,-9%,4,0.3,5
O=C(CSc1ncccn1)N1CCN(C(c2ccccc2)c2ccccc2)CC1,-1,-13%,7%,-2,0.9,-8
COc1cccc(C(c2c(NC(=O)c3ccco3)sc(C)c2C)N2CCOCC2)c1 (centres undefined),-14,?,?,-19,1.1,-2
CCOc1ccc(OCCn2nnc3ccccc3c2=O)cc1,-26,-2%,-2%[15.4 µM],7,4.2,-5
COc1cccc(-c2ccc(SCC(=O)c3ccccc3)nn2)c1,12,-15%,10%[15.4 µM],-2,1.8,-4
COc1ccc(S(=O)(=O)N2CC(O)CC2C(=O)OCC(=O)Nc2ccc(Cl)cn2)cc1 (centres undefined),11,-18%,0%,3,-2.0,28
Nc1nc(Br)c2ccccc2c1-c1ccccc1,-24,-5%,-10%[15.4 µM],39,-3.9,-7
Cc1cc(=O)c2cccc(Br)c2[nH]1,-4,17%,-21%,5,-2.4,-4
Cc1nnc(SCCn2c(N3CCC(C)CC3)nc3c2c(=O)[nH]c(=O)n3C)s1,10,-10%,23%,1,-3.2,-2
c1ccc(Oc2cccc(NC3=NCCC3)c2)cc1,1,1%,31%,1,-4.2,-33
O=C1CCC(C(=O)Nc2cc(C(F)(F)F)ccc2-n2cncn2)=NN1,0,-6%,8%,-13,-3.4,-9
COc1cc(C(=O)NCC(=O)N/N=C/c2ccc(-c3cccc([N+](=O)[O-])c3)o2)cc(OC)c1OC,0,-12%,-2%[15.4 µM],-19,-5.9,-12
COc1ccc(/C=N/NC(=O)c2ccc(O)cc2)cc1CN1CCCc2ccccc21,-27,?,13%,?,2.4,8
COc1ccc(-n2nccc2-c2nn(-c3cccc(OC)c3)c(=O)n(C)c2=O)cc1,-10,-21%,-50%[inhibitor],5,-3.4,-6
CCn1cc(C(=O)NCc2ccco2)c(=O)c2cc(S(=O)(=O)N3CCCCCC3)ccc21,-14,-7%,-39%[inhibitor],-14,-7.1,-5
COc1ccc(C(=O)C2CCCN(Cc3cn[nH]c3-c3ccccc3)C2)cc1OC (centres undefined),-4,0%,11%,1,-4.9,-12
O=C(COc1ccc([N+](=O)[O-])cc1)Nc1cccnc1,3,12%,-10%[15.4 µM],5,-4.5,-5
COc1ccc(/C=N\NC(=O)COc2ccccc2Cl)cc1Cn1nc(C)cc1C,8,9%,-5%,3,-0.2,-2
CCN1C(=O)[C@H]2[C@@H](c3ccc(-c4ccc(OC)cc4)cc3)N3CCCC[C@@]3(C(=O)OC)[C@H]2C1=O,-2,-20%,·,-5,-0.3,-5
CC(C)C(C(=O)Nc1ncn[nH]1)N1C(=O)c2ccccc2C1=O (centres undefined),-2,-13%,-58%[inhibitor],3,-1.9,2
Cc1nc2sc(C(c3ccccc3)N3CCN(C)CC3)c(O)n2n1 (centres undefined),2,4%,?,0,-0.5,-5
Cn1c(-c2ccc(-c3ccccc3)cc2)c[nH]c1=S,-4,4%,2%,-15,-8.2,-20
COc1ccccc1NC(=O)[C@@H]1CCCN1S(=O)(=O)c1ccc(Cl)cc1,-1,-6%,-3%[15.4 µM],3,-1.0,-25
O=C(NCc1cccnc1)c1cc(C2CCCCN2S(=O)(=O)c2cccc3cccnc23)on1 (centres undefined),1,·,·,-2,-0.7,-1
CCCc1cc(=O)oc2c(CN3CCCC3)c(O)c(Cl)cc12,3,4%,?,8,-0.1,-4

# Other compounds follow.
SMILES,CtBP-E1A blk,gsp antag,gsp ag,Six1-Eya2 blk,D2 agonist,D2 potentiator
COc1ccc(N(CC(=O)NCc2ccccc2)S(=O)(=O)c2c(C)n[nH]c2C)cc1,-2,12%,1%,4,-1.8,-6
COC(C[C@H](O)[C@H](C)[C@@H](O)COCc1ccccc1)OC,0,-5%,·,1,-4.5,-11
CCC(CO)Oc1cc(NCc2ccc(C(F)(F)F)cc2)c2ncn(C(C)C)c2c1 (centres undefined),-9,7%,?,-9,0.5,-15
COc1ccc(CC(=O)Nc2cc(C)on2)cc1,11,9%,-5%,-1,-3.3,-14
O=C(COC(=O)c1ccccc1NCCO)Nc1cccc(S(=O)(=O)NC2=NCCCCC2)c1,-18,5%,-9%[15.4 µM],-12,-2.4,5
O=C(c1cccs1)c1coc2ccc(O)c(CN(CCO)CCO)c12,4,2%,1%,5,1.3,5
O=[N+]([O-])c1cccc(S(=O)(=O)N2CCN(c3ccccn3)CC2)c1,·,6%,9%,11,-1.3,-2
COc1cc(NC(=S)N2CCN(C(=O)C3CCCO3)CC2)c(OC)cc1Cl (centres undefined),·,-2%,-2%,-1,0.9,-4
Cc1cc(NC(=O)NC(C(F)(F)F)C(F)(F)F)no1,4,8%,17%,4,1.1,0
CC(C)CC(OC(=O)c1ccco1)C(=O)NCC1CCCO1 (centres undefined),6,5%,?,0,-1.1,1
COC(=O)C1CCN(C2CN(Cc3ccc(C)cc3)S(=O)(=O)C2)CC1 (centres undefined),-2,·,·,11,-4.1,-5
CCS(=O)(=O)N1CCCC(C(=O)NC2CCC(C)CC2)C1 (centres undefined),-2,7%,10%,6,0.1,2
COc1ccc(-c2nc(=S)c3c([nH]2)Oc2ccc(C)cc2C3)cc1O,-10,-3%,-61%[inhibitor],-8,2.6,12
O=C(CN1CCN(Cc2ccccc2)CC1)N/N=C/c1ccco1,4,7%,-7%,3,-4.2,-14
Cc1nn2c(N3CCN(CCO)CC3)c3c(nc2c1-c1ccccc1)CCCC3,-2,-8%,-6%[15.4 µM],1,-3.7,-16
CC(=O)c1ccc(NC(=O)CN(C)CC(=O)Nc2cccc(F)c2)cc1,0,-10%,-3%[15.4 µM],-8,-2.1,2
COc1ccccc1CNC(=O)c1cc2c(s1)CS(=O)(=O)C2,2,0%,-19%,6,-0.8,-2
O=C(Nc1nnc(SCc2ccc(F)cc2)s1)c1ccc2c(c1)C(=O)N(c1ccccc1Cl)C2=O,1,-25%,0%,-3,7.8,7
COc1ccc(S(=O)(=O)N2CCCC2)c2ccccc12,1,-6%,-40%[inhibitor],5,-3.0,-4
CCOC(=O)CC(NC(=O)Cn1nnc(-c2ccccc2Cl)n1)c1ccc(OC)cc1 (centres undefined),-1,2%,-8%,1,-3.7,-6
Cc1cccc(NC(=S)NCCc2ccccc2)c1C,5,7%,-2%[15.4 µM],0,-3.1,-5
CN(C)c1cccc2c1c(NC(=O)Nc1ccccc1)nn2C,·,-5%,12%,-21,0.6,-21
CN(C)S(=O)(=O)c1ccc(Cl)c(NC(=O)CN2C(=O)NC3(CCc4ccccc43)C2=O)c1 (centres undefined),0,7%,-2%,-1,-2.3,1
Cc1nc2sc(C(c3cccs3)N3CCOCC3)c(O)n2n1 (centres undefined),6,10%,-50%,2,-2.3,-8
O=C(c1ccc2c(c1)N(Cc1ccc(F)cc1)C(=O)c1ccccc1S2(=O)=O)N1CCN(c2ccccn2)CC1,-18,-15%,0%,-8,-3.2,-25

# Exported with tabs: entries from further up.
mol	CtBP-E1A blk	gsp antag	gsp ag	Six1-Eya2 blk	D2 agonist	D2 potentiator
COc1ccccc1CNC(=O)c1cc2c(s1)CS(=O)(=O)C2	2	0%	-19%	6	-0.8	-2
O=C(Nc1nnc(SCc2ccc(F)cc2)s1)c1ccc2c(c1)C(=O)N(c1ccccc1Cl)C2=O	1	-25%	0%	-3	7.8	7
COc1ccc(S(=O)(=O)N2CCCC2)c2ccccc12	1	-6%	-40%[inhibitor]	5	-3.0	-4
CCOC(=O)CC(NC(=O)Cn1nnc(-c2ccccc2Cl)n1)c1ccc(OC)cc1 (centres undefined)	-1	2%	-8%	1	-3.7	-6

# Following part
SMILES,CtBP-E1A blk,gsp antag,gsp ag,Six1-Eya2 blk,D2 agonist,D2 potentiator
Clc1ccc(-c2nc3ccccc3n2OCc2ccccc2)cc1,4,?,-38%[inhibitor],0,-2.3,2
Cc1ccc(C2(c3noc(CN4CCC(C(=O)N5CCOCC5)CC4)n3)CCCC2)cc1,·,2%,-17%,7,-1.4,-9
CC(=O)Nc1cccc(/C(C)=N/NC(N)=S)c1,4,4%,-4%[15.4 µM],0,-0.7,3
Cc1cccc(C)c1OCC(=O)Nc1ccccc1N1CCCCC1,8,-19%,-9%,3,-1.2,3
N#Cc1cccc(NC(=O)Cn2cnc(S(=O)(=O)N3CCc4ccccc43)c2)c1,-3,0%,-8%,-3,-2.3,-24
O=C(/C=C/c1cccc([N+](=O)[O-])c1)N1CCN(Cc2ccccc2)CC1,-3,3%,?,-7,-2.9,-3
Cn1cc(CN2CCC(C(O)CCc3ccccc3)CC2)c(-c2ccccc2F)n1 (centres undefined),0,-7%,-7%[15.4 µM],0,-3.7,-16
O=C(CSc1nnc(NC2CCCCC2)s1)NC1CCS(=O)(=O)C1 (centres undefined),-11,1%,?,5,-0.9,-5
CC1CCN(c2nc3c(c(=O)[nH]c(=O)n3C)n2CCCc2ccccc2)CC1,10,-8%,-26%,-3,1.4,-7
O=C(CSc1ccc(-c2ccccc2)nn1)NCc1ccco1,0,-12%,-13%,0,-3.4,-13
FC(F)(F)c1cccc(N2CCN(Cc3ccoc3)CC2)c1,14,8%,-6%,6,-1.4,-14
Cc1ccc(NC(=O)CN2CCC(C(N)=O)CC2)cc1[N+](=O)[O-],7,5%,-1%,3,-0.2,-6
Cc1nnc2ccc(-c3ccc(NS(=O)(=O)c4ccccc4F)cc3)nn12,-29,0%,-7%[15.4 µM],-14,-0.3,?
CCCn1c(SCC(=O)Nc2cccc(F)c2)nc(O)cc1=O,6,?,-10%,0,-1.0,-7
Cc1noc(C)c1C(=O)Nc1cc(S(=O)(=O)N2CCCCC2)ccc1N(C)C,-1,-4%,-24%,-3,-4.0,-7
Cc1nc(SCC(=O)NC(=O)NC2CCCCC2)nc(C)c1C,3,4%,10%[15.4 µM],0,-5.7,-6
COc1cc(/C=N/NC(=O)CNC(=O)c2cccs2)ccc1O,-4,-1%,7%,-17,-3.3,-12
COc1ccc(N(CC(=O)Nc2cc([N+](=O)[O-])ccc2C)S(C)(=O)=O)cc1OC,1,-9%,0%[15.4 µM],13,-2.2,-4
Cc1cccc(C)c1NC(=O)NN(C(=O)c1ccccc1)C(C)(C)C,-2,7%,-67%[inhibitor],-8,2.3,-7
CC(C)NC(=O)c1onc(CSc2ccc(Cl)cc2)c1C(=O)NC(C)C,15,-10%,·,12,4.5,6
O=C(CN1CCN(S(=O)(=O)c2ccc(F)cc2)CC1)Nc1cc(C(F)(F)F)ccc1Cl,7,0%,-20%,-3,-1.0,-5

# Screening data deposited in PubChem BioAssay by National Center for Advancing Translational Sciences (NCATS).
